HIV Env fusion – HIV envelope-mediated fusion inhibition | 1.1% of 360,000 active | HeLa-JRFL Env/CEM21 cell fusion, luciferase | inhibition, % at 12.3 µM;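 active = mean replicate inhibition score of at least 50 and every replicate individually at or above 50; inconclusive = only one of the two criteria met; inactive = mean below 50 and not all replicates reaching 50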;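 also: 0% = plate neutral controls and 100% = maraviroc near 300 nM; one replicate is shown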
CSC inhib – cancer stem cell inhibition; inhibition, % at 7.5 µM; cancer stem cell-like cells viability, luminescence; 1.1% of 300,000 active;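 active = mean at 75% or more and at least half the replicates too; inconclusive = mean and replicates disagree; tested in HMLE shEcad cells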;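 also: 0% = median of negative and 100% = median of positive control wells; the first replicate is given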
Rce1 inh – yeast Ras-converting enzyme inhibition. Q03530. 0.27% of 290,000 active. yeast membranes, quenched prenylated peptide cleavage fluorescence. calls only;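 active = fall in fluorescence gain of 50% or more versus controls, with final raw signal at or below 3038400; inconclusive = same 50% fall but final raw signal above 3038400; inactive = fall in fluorescence gain under 50%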;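 also: plate controls were neutral control wells for no effect and wells lacking membranes for full effect; tested at 10 µM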
Target sequence (Q03530 whole entry, looked up): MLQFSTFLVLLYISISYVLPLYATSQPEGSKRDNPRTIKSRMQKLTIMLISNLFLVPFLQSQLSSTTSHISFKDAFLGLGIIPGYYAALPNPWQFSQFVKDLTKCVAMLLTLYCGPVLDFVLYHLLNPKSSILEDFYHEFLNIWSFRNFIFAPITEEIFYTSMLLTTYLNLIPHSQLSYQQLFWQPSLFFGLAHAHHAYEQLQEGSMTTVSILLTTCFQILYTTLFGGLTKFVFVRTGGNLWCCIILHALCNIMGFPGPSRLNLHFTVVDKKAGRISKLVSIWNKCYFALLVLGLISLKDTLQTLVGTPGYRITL
MT1-MMP act inh – blocks activation of human MT1-MMP | GFP/RFP ratio change, % at 20 µM | HT1080 RFP-PRO-GFP cells, GFP/RFP ratio fluorescence, overnight; percent of plate control window, DMSO zero | P50281 | 0.061% of 360,000 active | AID 651647;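 active = GFP/RFP ratio change of at least 30% with cell ATP level not reduced by more than half and red fluorescence within 50% of control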; also: strong numbers were not always called active
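Read-out: GFP/RFP fluorescence ratio; Test system: RFP-PRO-GFP reporter HT1080 cells; Compound dosing: single-point 20 µM compound, 1% DMSO; Times: overnight compound exposure at 37 °C.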
eIF4H inh – inhibitors of RNA binding by human eIF4H; Q15056; eIF4H fluorescence polarization binding assay; inhibition, % at 35 µM; 0.94% of 290,000 active; AID 2012;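 active = 50% or more with normal probe brightness, or confirmed in later tests; inconclusive = above 50% with abnormal brightness, or retests that disagree; inactive = below 50% or failed in later tests; about a fifth of its hits are not listed in these tables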;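 also: calls also rest on retests at 20 µM and on dose response follow-up; 0% = protein and probe with vehicle and 100% = probe without protein; strong numbers were not always called active; many hits fall short of the cut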
PABP polyA inh – PABP-poly(A) binding inhibition; P11940; PABP-poly(A) RNA binding, fluorescence polarization; inhibition, % at 35 µM; 1% of 290,000 active; AID 2014;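 active = 50% or more with normal probe brightness, or confirmed in later tests; inconclusive = above 50% with abnormal brightness, or retests that disagree; inactive = below 50% or failed in later tests; about a fifth of its hits are not listed in these tables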;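 also: calls also rest on retests at 20 µM and on dose response follow-up; controls were probe without protein and protein plus probe with vehicle; some compounds called inactive have numbers as strong as hits; many hits fall short of the cut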
Yeast UUG start – alters start codon recognition fidelity in yeast; S. cerevisiae UUG-firefly luciferase reporter, luminescence/redox ratio; activity score, % at 18.7 µM; 0.13% of 350,000 active; AID 602363;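 active = replicate mean at a twofold rise or more, about +100% in these data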;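 also: firefly luciferase made from a UUG start codon reports start codon fidelity; reporter light over untreated wells divided by growth signal over untreated wells; some hits fall short of that in this replicate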
eIF4H inh retest – second read-out of eIF4H inh, no call of its own (marks repeat the call); inhibition, %; compound at 20 µM; confirmation average;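 mean of two retest wells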
PABP polyA inh retest – second read-out of PABP polyA inh, no call of its own (marks repeat the call); inhibition, %; compound at 20 µM; confirmation repeats;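 mean of two retest wells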
MT1-MMP act inh RFP – recorded beside MT1-MMP act inh, whose call it bears; RFP signal change, %; measured here: RFP expression control read;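 0 = vehicle wells; hits needed this value within 50% of zero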
An asterisk follows results filed as active; i = inactive; ? = inconclusive; · = no result given.

Start of the listing, in advance:
SMILES	HIV Env fusion	CSC inhib	Rce1 inh	MT1-MMP act inh	MT1-MMP act inh RFP	eIF4H inh	PABP polyA inh	Yeast UUG start	others
CCC(C)NC(=O)NC(=O)N(C1CCCCC1)S(C)(=O)=O (stereo not drawn)	-33	-15	i	-3	-1	11	-16	-13
CC1(C(=O)Nc2cccc3c2CCCC3)CCN1C(=O)CCc1ccc(Cl)cc1Cl (stereo not drawn)	30	·	·	-7	0	·	·	-27
COc1cc2ccccc2cc1C(=O)N1CCc2ccccc21	11	·	·	-3	-7	·	·	7
COc1ccc(OC)c(C=NNC(=O)c2ccccc2NS(=O)(=O)c2cccs2)c1	·	-21	·	2	7	·	·	-13
CC(C)c1ccc(NC(=O)Nc2nc(C(C)N)cs2)cc1 (stereo not drawn)	-13	·	·	5	1	·	·	-19

The list itself, from the start:
SMILES	HIV Env fusion	CSC inhib	Rce1 inh	MT1-MMP act inh	MT1-MMP act inh RFP	eIF4H inh	PABP polyA inh	Yeast UUG start	others
CCC(C)NC(=O)NC(=O)N(C1CCCCC1)S(C)(=O)=O (stereo not drawn)	-33	-15	i	-3	-1	11	-16	-13
CC1(C(=O)Nc2cccc3c2CCCC3)CCN1C(=O)CCc1ccc(Cl)cc1Cl (stereo not drawn)	30	·	·	-7	0	·	·	-27
COc1cc2ccccc2cc1C(=O)N1CCc2ccccc21	11	·	·	-3	-7	·	·	7
COc1ccc(OC)c(C=NNC(=O)c2ccccc2NS(=O)(=O)c2cccs2)c1	·	-21	·	2	7	·	·	-13
CC(C)c1ccc(NC(=O)Nc2nc(C(C)N)cs2)cc1 (stereo not drawn)	-13	·	·	5	1	·	·	-19
Cc1ccc(NC(=S)N2CCN(c3nccc(C(F)(F)F)n3)CC2)c(C)c1	-8	-4	i	1	-1	12	4	-18
Cc1ccc(C(=O)NCC(=O)OCc2csc(-c3ccccc3)n2)cc1	-7	-6	i	2	2	-3	1	-21
NC1=NC[C@H](c2ccccc2)N1CCCCC1CCCCC1	-1	0	i	-8	-10	0	-8	-10
CCCCCCNC(=O)O[C@@]12CN(S(=O)(=O)c3ccc(C)cc3)C[C@]1(O)Cn1c(=O)n(CCCCCC)c(=O)n1C2	-13	·	·	-2	-9	·	·	0
COc1cccc(OCC(=O)Nc2cc(NC(=O)COc3cccc(OC)c3)cc(C(=O)O)c2)c1	-2	-16	i	-1	4	12	21	-7
CSc1nsc(/C=C/Nc2ccc(F)cc2F)c1C#N	·	27	i	-57	4	74	20	·	eIF4H inh retest=11;PABP polyA inh retest=3
CN(C)C(CNC(=O)c1cc(S(=O)(=O)N(C)c2ccccc2)ccc1Cl)c1cccs1 (stereo not drawn)	36	-20	i	5	0	1	19	-11
CCOc1ccccc1N1CCN(CC(=O)NCCc2ccc(S(N)(=O)=O)cc2)CC1	4	-3	i	3	8	6	22	·
Cc1nn(Cc2ccc(Cl)cc2Cl)c(C)c1NC(=O)Cn1nc([N+](=O)[O-])c(Cl)c1C	·	·	i	8	1	4	-4	·
CCOc1ccc(NC(=O)c2ccc(CNc3c(N4CCCC4)c(=O)c3=O)cc2)cc1	-4	-11	i	2	1	-3	2	·
O=C(CN(C(=O)C1CSC(=O)C1)c1cccc(F)c1)NC1CCCC1 (stereo not drawn)	-5	15	i	-1	4	-6	-6	8
CC1=C(C(=O)Nc2cccnc2)C(c2cccnc2)n2ncnc2N1 (stereo not drawn)	·	3	i	3	9	3	-5	·
COc1ccc(C2Nc3ccccc3C(=O)N2Cc2ccco2)cc1COc1ccc(NC(C)=O)cc1 (stereo not drawn)	15	5	i	-3	-11	8	6	-11
O=C(Nc1ccccc1-c1ccccc1)NC1CC2CCCC(C1)N2Cc1ccc(F)cc1 (stereo not drawn)	3	12	i	3	2	1	1	1
Cc1ccc2c(ccn3cc4c(c(=O)n(C)c(=O)n4C)c23)c1	-11	10	·	3	3	23	8	·
CCOC(=O)Cn1c(=NC(=O)CN2C(=O)CCC2=O)sc2cc(S(N)(=O)=O)ccc21	·	-16	i	-1	2	6	-4	10
O=C(O)CCSc1nnc(-c2ccncc2)n1-c1ccccc1	·	11	i	4	6	0	4	-9
CCCn1nc2cc(C(=O)NC3CCc4ccccc43)ccc2c1OCC (stereo not drawn)	17	-10	i	4	3	-10	-4	-8
O=C(Nc1nc(-c2ccc(Cl)s2)cs1)c1cccs1	·	-6	i	-41	-29	-10	9	-20
CC1CC(C)CN(C(=O)CCNC(=O)c2ccccc2Cl)C1 (stereo not drawn)	14	-7	i	-1	-1	3	-4	-1
CC1(C)NC(=O)N(CCCCOc2ccccc2[N+](=O)[O-])C1=O	·	12	i	·	·	-2	2	·
CCCCCCC1CC(CSC(=N)N)OC1=O (stereo not drawn)	·	4	i	1	0	-1	0	·
COC(=O)/C=c1/s/c(=C(/C#N)C(=O)N2CCOCC2)n(-c2ccccc2)c1=O	-6	10	i	6	12	-10	0	-16
CC1CCc2c(C(=O)OCC(=O)Nc3cccc(S(=O)(=O)N4CCCCCC4)c3)csc2C1 (stereo not drawn)	-8	1	i	-6	-11	5	5	·
COc1ccc(C2C(C#N)=C(N)N(c3sc4c(c3C#N)CCCC4)C3=C2C(=O)CC(C)(C)C3)cc1OC (stereo not drawn)	-48	2	i	-32	-12	28	36	-24
Cc1ccc(S(=O)(=O)N2CCN(C(=O)COC(=O)CCCOc3ccccc3)CC2)c(C)c1	-2	·	·	3	4	·	·	1
CC(=O)N1CCN(C(=O)COc2ccc(N(C)S(=O)(=O)c3cccs3)cc2)CC1	-14	·	i	-1	1	-6	3	·
O=C(Cn1cc([N+](=O)[O-])cn1)Nc1ccc(Cn2cc(Br)cn2)cc1	6	12	i	4	-2	-1	12	5
Fc1ccc(CNc2nc3ccccc3n3cnnc23)cc1	-2	6	i	7	7	-3	1	-9
COc1cccc(-c2nnn(CC(C)=O)n2)c1	·	-8	i	4	6	-2	14	-17
O=C(CN(Cc1ccc2c(c1)OCO2)C(=O)CNS(=O)(=O)c1ccccc1)NCC1CCCO1 (stereo not drawn)	·	-7	i	2	1	-9	-4	-9
NC(=O)c1sc(=S)n(-c2ccc(Br)cc2)c1N	-81	54	i	1	6	-10	2	-13
O=C(Oc1cccnc1)c1ccc(Cl)cc1	1	8	i	4	6	-13	13	-10
O=C(COC(=O)CNC(=O)c1ccccc1)Nc1cccc(Br)c1	-27	-8	i	-4	3	1	-6	-18
COc1ccccc1NC(=O)c1c(Nc2ccccc2C)sc(C(=O)Nc2cccc(Cl)c2)c1N	34	74	i	-3	-25	-9	6	-17
Nc1nc(CC(=O)CSc2ccc(Cl)cc2)nc(Nc2ccc(F)cc2)n1	3	3	i	·	·	0	2	·
CCC1(CC)NC(=O)N(CC(=O)OCC(=O)Nc2ccc(F)c(F)c2F)C1=O	-1	-7	i	2	7	5	2	·
O=[N+]([O-])c1ccc(Sc2nc3ccccc3o2)c([N+](=O)[O-])c1	·	106*	i	17	-1	0	0	-25
C/C(N)=C(/C#N)C(=O)COC(=O)c1cc2c(s1)CCC(C)C2 (stereo not drawn)	-4	10	i	4	-4	8	3	·
CCCC1=[N+](CC(C)=O)CCn2c(C)ccc21	2	-9	i	-5	-1	18	2	·
CCOC(=O)N1CCC(N2CC34C=CC(O3)C(C(=O)Nc3ccc(C(C)C)cc3)C4C2=O)CC1 (stereo not drawn)	-27	-19	·	1	-2	4	-11	-20
Nc1nc(SCC(=O)N2CCc3ccccc3C2)[nH]c(=O)c1-c1ccccc1	-23	-12	i	-11	1	-4	10	-19
Nc1ncnc2c1ncn2[C@@H]1O[C@H](C(=O)N[C@H](CO)Cc2ccc(O)cc2)[C@@H](O)[C@H]1O	-19	·	·	3	3	·	·	2
COc1ccc(NS(=O)(=O)c2cccc(-c3nnc(-c4ccccc4)o3)c2)cc1	·	2	i	-1	-5	-7	2	·
CCC1(C)OC(=O)N2CCc3c(C)[nH]c4c(C)ccc(c34)C21C (stereo not drawn)	-36	-18	i	2	2	-3	-7	-12

Additional entries follow:
SMILES	HIV Env fusion	CSC inhib	Rce1 inh	MT1-MMP act inh	MT1-MMP act inh RFP	eIF4H inh	PABP polyA inh	Yeast UUG start	others
CC(/C=C/c1ccc2c(c1)OCO2)=N\NC(=O)c1ccccc1	-27	4	i	5	10	8	13	·
CC1CN(S(=O)(=O)c2cc(C(=O)NC(C)c3cccnc3)ccc2Cl)CC(C)O1 (stereo not drawn)	8	-13	·	1	-5	·	·	3
CS(=O)(=O)N(CC(=O)Nc1ccccc1C(=O)N1CCOCC1)c1ccccc1	·	·	i	0	6	3	-2	-11
Cc1cc(S(=O)(=O)NCc2ccco2)c(C)s1	·	4	i	-1	-1	0	13	3
O=C(CSc1nnc(COc2ccc(Cl)cc2)o1)Nc1nccs1	-5	·	·	3	2	·	·	-20
CCOC(=O)CSc1nc(-c2cccs2)nc2c1c(=O)n(C)c(=O)n2C	·	-1	i	5	6	-6	-14	-2
O=[N+]([O-])c1ccc(O)c(C2CCCCC2)c1	26	·	·	4	-36	·	·	-44
Cc1ccc2[nH]c3c(=O)n(CC(=O)NCc4ccco4)ncc3c2c1	0	-3	i	-1	-3	59*	16	-7	eIF4H inh retest=70*;PABP polyA inh retest=31
COc1ccccc1N(CC(O)Cn1nc(C)cc1C)S(=O)(=O)c1ccccc1 (stereo not drawn)	17	-10	i	3	2	-7	?	·
CCOC(=O)N1CCN(C(=O)CCCn2c(=S)[nH]c3ccccc3c2=O)CC1	-22	-6	i	-1	-1	4	6	-16

Three compounds from above, sorted by number of heavy atoms, largest number first.
SMILES	HIV Env fusion	CSC inhib	Rce1 inh	MT1-MMP act inh	MT1-MMP act inh RFP	eIF4H inh	PABP polyA inh	Yeast UUG start	others
CS(=O)(=O)N(CC(=O)Nc1ccccc1C(=O)N1CCOCC1)c1ccccc1	·	·	i	0	6	3	-2	-11
CCOC(=O)N1CCN(C(=O)CCCn2c(=S)[nH]c3ccccc3c2=O)CC1	-22	-6	i	-1	-1	4	6	-16
O=C(CSc1nnc(COc2ccc(Cl)cc2)o1)Nc1nccs1	-5	·	·	3	2	·	·	-20

(more compounds)
SMILES	HIV Env fusion	CSC inhib	Rce1 inh	MT1-MMP act inh	MT1-MMP act inh RFP	eIF4H inh	PABP polyA inh	Yeast UUG start	others
COCCn1c(C)nnc1SCC(=O)NNC(=O)c1ccc(Cl)cc1	-6	-6	i	0	-1	-11	-1	-10
Cc1ccc(OCC(=O)NCCCNC(=O)c2ccc(C)nc2)cc1	10	·	i	0	3	-11	0	-13
COc1ccc(NC(=O)C2CCCN(S(C)(=O)=O)C2)c(OC)c1 (stereo not drawn)	16	-19	i	2	3	8	2	16
Cc1cc(=O)[nH]c2sc(C(=O)N3c4ccccc4CC3C)c(N)c12 (stereo not drawn)	7	-7	·	3	-14	·	·	·
Cc1ccc(C(=O)NCCC(=O)N2CCCC2)cc1	-16	-7	i	0	2	11	14	-12
